Screening data (PubChem BioAssay)
VDR inhibitor – vitamin D3 receptor (human) inhibition; Potency, µM, without a hit: max response, negative = inhibition, usual class: inhibitors; VDR-SRC2-3 peptide fluorescence polarization, 2 h; P11473; actives 0.93% (n = 400,000); active means well fitted inhibition curve with a large enough effect; inconclusive means small, poorly fitted or top-dose-only effect, or another doubt; inactive means no such curve, though single readings can be large or run the other way; further: series mostly up to about 120 µM
Target sequence (P11473 whole entry, looked up): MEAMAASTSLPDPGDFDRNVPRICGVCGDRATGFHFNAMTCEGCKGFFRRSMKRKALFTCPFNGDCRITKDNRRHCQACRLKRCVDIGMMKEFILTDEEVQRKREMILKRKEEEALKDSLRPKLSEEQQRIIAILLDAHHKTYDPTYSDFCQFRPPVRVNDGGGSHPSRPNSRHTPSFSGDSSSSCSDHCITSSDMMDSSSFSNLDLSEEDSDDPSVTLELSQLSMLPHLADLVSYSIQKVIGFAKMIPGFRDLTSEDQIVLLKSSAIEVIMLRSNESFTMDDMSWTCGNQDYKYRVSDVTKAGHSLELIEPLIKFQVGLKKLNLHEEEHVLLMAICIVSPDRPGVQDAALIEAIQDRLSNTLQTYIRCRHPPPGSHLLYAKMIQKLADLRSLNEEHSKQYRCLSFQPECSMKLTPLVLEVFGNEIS
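Inhibition of the VDR/SRC2-3 peptide interaction is quantified by fluorescence polarization. Compounds (23 nl, pintool) incubate with the reagents for 2 hours at ambient room temperature.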
Active calls of the source: *; ? = inconclusive; [ ] = remark or other dose. On the % scale 0 is the no-effect control and ±100 the full control effect; potency means the concentration at half of the fitted maximal effect. These rows are one share of the data. The share of hits here may be higher or lower than overall.

compound | VDR inhibitor
Cc1cc(/C=N/n2cnnc2)c(C)n1-c1ccc(OCc2ccc(Cl)cc2Cl)cc1 | 2%
Cc1cc2c(cc1S(=O)(=O)N1CCN(c3ccccc3)CC1)OCCN2C | -5%
COc1cccc(/C=C/C(=O)Nc2cccc(C(C)=O)c2)c1OC | -11%
COCCN(CCOC)S(=O)(=O)c1ccc(C(=O)Nc2ccc(S(=O)(=O)Nc3nccc(C)n3)cc2)cc1 | -8%
Cc1cc(C)n(-c2ncnc3ccccc23)n1 | -11%
Cc1cc[n+](CC(=O)c2ccc(NC(=O)c3ccccc3)cc2)cc1 | -1%
Cc1ccccc1NC(=O)CSc1ccsc1[N+](=O)[O-] | -13%
COc1ccc(NC(=O)N(C)C[C@H]2Oc3ccc(NC(=O)C4CCCCC4)cc3C(=O)N([C@H](C)CO)C[C@@H]2C)cc1 | 9%
COC(=O)c1cc(OC)c(OC)cc1NC(=O)c1ccc(OC)c(OC)c1 | 0%
O=C(Nc1ccc(-n2nncc2-c2ccco2)cc1)c1ccc(F)cc1 | 8%
c1ccc(-c2cc3n(c2)CCc2ccccc2-3)cc1 | -12%
COc1ccc(C2CC(c3ccc4ccccc4c3)=NN2C(=O)CN2C(=O)CCC2=O)cc1 (stereo not drawn) | 9%
COc1ccc(CN2CCNC(=O)C2CC(=O)NCCc2c[nH]c3ccccc23)c(OC)c1 (stereo not drawn) | ?
CC(=O)c1c(C)nn(CC(O)COc2ccc3c(c2)CCC3)c1C (stereo not drawn) | -6%
O=C(Cc1ccccc1)NC(Nc1ccccc1)C(Cl)(Cl)Cl (stereo not drawn) | -15%
NC(=O)C1CCN(c2oc(-c3ccccc3F)nc2S(=O)(=O)c2ccc(Cl)cc2)CC1 | -9%
CCCCC1CCC(C(=O)N(C)CC(=O)Nc2cccc(F)c2)CC1 (stereo not drawn) | 7%
Cc1ccc(S(=O)(=O)N(CC(=O)N/N=C\c2cccs2)c2cccc3cccnc23)cc1 | 0%
NC(=O)CCCc1nc(-c2ccccc2)no1 | 2%
CC1=C(C(=O)Nc2ccccc2)C2(CCCCC2)C(C(N)=O)C(=S)N1 (stereo not drawn) | 5%

compound | VDR inhibitor
COc1cc(C(=O)OCC(=O)N2CCC(C)CC2)cc2c1OCCO2 | -1%
COc1ccc(-n2nnc3c(=O)n(CC(=O)NCC4CCCO4)cnc32)cc1 (stereo not drawn) | 10%
Cc1ccccc1OCCn1nc(C(=O)O)c2ccccc2c1=O | 6%
Cc1ccc(NC(=O)c2ccco2)c(NC(=O)c2ccccc2C)c1 | 9%
Cc1occc1-c1nnc(SCC(=O)c2ccc(F)cc2)o1 | -3%
O=C(NC1CCCCC1)NC1CCN(S(=O)(=O)c2ccc3c(c2)OCCO3)CC1 | -5%
Cc1ccc(S(=O)(=O)c2c(C)cc(C)nc2Cl)cc1 | -22%
COc1ccc(N(S(=O)(=O)c2ccccc2)S(=O)(=O)c2ccccc2)c(N)c1 | -16%
O=c1[nH]c(C2CCCN(S(=O)(=O)c3ccccc3)C2)nc2c1nnn2Cc1ccccc1F (stereo not drawn) | 9%
c1ccc(-c2nnc(OCc3cccnc3)c3ccccc23)cc1 | 7%
CCCNC(=O)c1n[nH]c2c1CC(C(C)(C)CC)CC2 (stereo not drawn) | -11%
CCc1ccc2[nH]c(=O)c(C(c3nnnn3CCOC)N3CCN(c4ccccc4)CC3)cc2c1 (stereo not drawn) | -16%
O=C(C(c1ccccc1)c1ccccc1)N1CCN(Cc2ccco2)CC1 | 2%
Cc1c(C(=O)OCC(C)C)[nH]c2c1C(=O)CC(c1cccs1)C2 (stereo not drawn) | 11%
O=S(=O)(c1cccc(S(=O)(=O)N2CCN(c3ncccn3)CC2)c1)N1CCOCC1 | 16%
CCOC(=O)CC1=C(C(=O)OCC)C(c2cccs2)C(C#N)=C(N)O1 (stereo not drawn) | -6%
O=S1(=O)N=C(N/N=C/c2ccccn2)c2ccccc21 | 14%
COc1ccc2[nH]c(=O)c(CN(C3CCCCC3)C(c3nnnn3Cc3ccco3)C(C)C)cc2c1 (stereo not drawn) | ?
O=C(NC(=S)Nc1nc(-c2cccc([N+](=O)[O-])c2)cs1)c1ccccc1Cl | 2%
Cc1c(O)ccc2c(O)c(NC(=O)c3ccc4c(c3)CCC(C)(C)O4)c(=O)oc12 | 4%

Overlap with the part before: three entries, followed by the next part.
compound | VDR inhibitor
COc1ccc2[nH]c(=O)c(CN(C3CCCCC3)C(c3nnnn3Cc3ccco3)C(C)C)cc2c1 (stereo not drawn) | ?
O=C(NC(=S)Nc1nc(-c2cccc([N+](=O)[O-])c2)cs1)c1ccccc1Cl | 2%
Cc1c(O)ccc2c(O)c(NC(=O)c3ccc4c(c3)CCC(C)(C)O4)c(=O)oc12 | 4%
NC(=O)c1ccc(NC(=O)COC(=O)c2ccccc2Nc2ccccc2)cc1 | 6%
O=C(NCCc1ccccc1)C1CCN(Cc2cc3ccccc3n2Cc2cccc(Cl)c2)CC1 | 5%
O=C(COC(=O)c1ccco1)NC12CC3CC(CC(C3)C1)C2 | 2%
Cc1ccc(SCC(=O)Nc2cccc(C)c2)cc1 | -5%
O=C(O)CCCNc1n[nH]c(=O)[nH]c1=O | 16%
Cn1c(=O)c2c(nc(CN3CCOCC3)n2CCN2CCOCC2)n(C)c1=O | 4%
O=C(NCc1ccccn1)c1ccccc1-c1ccccc1 | 16%
CCCC(O)(c1ccc(OC)cc1)C(CN1CCOCC1)c1ccccc1 (stereo not drawn) | -10%
O=C1CSC(=S)N1c1cccc(F)c1 | 23%
C=CCc1cc(Cl)ccc1OCCCNC(C)C | -8%
COCCn1c(SCC(=O)NCC2CCCO2)nc2c(c1=O)SCC2 (stereo not drawn) | -13%
COc1cc(NC(=O)[C@H](C)NC(=O)N2CCn3c2nc2ccccc23)cc(OC)c1 | 0%
CC(C)CCNC(=O)NC(=O)CN1C(=O)NC2(CCCCC2)C1=O | 24%
COc1ccc(NC(=O)COc2ccc(/C=N/O)cc2OC)cc1 | 3%
CCOCCCNC(=O)C(NC(=O)c1ccc(=O)[nH]c1)c1ccc(Cl)cc1 (stereo not drawn) | -3%
O=C(Cn1cc(SCc2ccccc2Cl)c2ccccc21)N1CCOCC1 | ?
COc1cc(O)c(C(=O)/C=C/c2ccc(OC)c(O)c2)c(OC)c1 | ?
Cc1cc(N=NC(=O)c2ccccc2)ccc1O | -12%
Cc1cc(C)cc(Nc2ccc(C(=O)O)cc2[N+](=O)[O-])c1 | -12%
CCC(C)NS(=O)(=O)c1ccc(NC(=O)CCC2CCCCC2)cc1 (stereo not drawn) | 2%

compound | VDR inhibitor
CCOc1ncccc1C(=O)OCC(=O)N1CCN(S(=O)(=O)c2ccccc2)CC1 | 2%
Cc1c(Cl)cccc1NC(=O)CC(NCCN1CCOCC1)C(=O)O (stereo not drawn) | -4%
Cc1ccc(Cl)cc1NC(=O)C1CCN(C(=O)c2cnn(-c3ccccc3)c2-n2cccc2)CC1 | 14%
COc1ccc(NC(=O)c2c(-c3ccccc3)noc2C)c(OC)c1 | 3%
COc1cccc2sc(N(Cc3cccnc3)C(=O)C3CCCCC3)nc12 | 14%
Cc1ccc(-c2nc(C)sc2CC(=O)Nc2nnc(C)s2)cc1 | -4%
CN(Cc1nc(-c2cnccn2)no1)CC1CCN(Cc2ccccc2)CC1 | 24%
CN(C)CCN(Cc1ccccc1)S(=O)(=O)c1ccc2[nH]c(=O)ccc2c1 | 11%
Cc1nonc1OCCNCc1c(C(=O)N2CCCCCCC2)nc2ccc(Cl)cn12 | -18%
Cc1ccc(N2CCN(C(=O)NCc3noc4ccc(C)cc34)CC2)c(C)c1 | -1%
COc1ccccc1NC(=O)C1CC(C(C)C)OC1=O (stereo not drawn) | 5%
CN(/N=C/c1cc(Br)cc(Br)c1O)c1cccc(C(F)(F)F)n1 | -3%
COc1ccccc1N(CC(=O)NC1CCCC1)C(=O)CCC(=O)Nc1ccccn1 | 10%
Cc1cccc(NC(=O)C(C)C(=O)c2ccccc2)c1 (stereo not drawn) | -26%
CC(C)OP(=O)(c1ccc(N(C)C)cc1)C(O)c1ccccc1F (stereo not drawn) | -20%
Cc1cccc(C(=O)N/N=C/c2ccc(OC3CSC3)cc2)c1 | 15%
CC(=O)NC(Cc1ccccc1)C(=O)NC1CCN(c2ncccc2[N+](=O)[O-])CC1 (stereo not drawn) | -4%
O=C1OC(N2C(=O)CC[C@H]2C(=O)Nc2ccc3c(c2)OCO3)c2ccccc21 (stereo partly drawn) | -4%
CCN(CC)c1nc(N)c2c(N)n(-c3ccccc3C)c(=S)c(C#N)c2c1C#N | ?
O=C(N/N=C/c1ccccn1)c1cccc(S(=O)(=O)N2CCCC2)c1 | -8%

compound | VDR inhibitor
CCCOc1ccc(-c2cc3onc(-c4ccccc4)c3c(=O)n2C)cc1 | -5%
CCCCn1c(N)c(N(CC(C)C)C(=O)C2CSC3(C)CCC(=O)N23)c(=O)[nH]c1=O (stereo not drawn) | -13%
O=C(CCCN1C(=O)/C(=C/c2cccs2)SC1=S)Nc1cc([N+](=O)[O-])ccc1O | 4%
CC(=O)N1CCC2(CCCN(Cc3cc(C(F)(F)F)cc(C(F)(F)F)c3)C2)CC1 | ?
O=C(NCCc1ccccc1)C(=O)Nc1cccc(Br)c1 | -14%
Cc1ccccc1NC(=O)/C(C#N)=C/c1ccccc1C(F)(F)F | ?
c1ccc(Cc2ccc(OCCN3CCOCC3)cc2)cc1 | 8%
O=C(c1nc2ccccn2c1CNCCn1ccc2ccccc21)N1CCOCC1 | 3%
CCOc1cc(S(=O)(=O)N2CCN(C(=O)c3ccco3)CC2)ccc1F | -10%
CCOC(=O)CCC(=O)N1CCOCCN(C(=O)CCC(=O)OCC)CCOCC1 | 21%
COc1cc(-n2c(=O)c3ccccc3n(CC(=O)c3ccc(Br)cc3)c2=O)cc(OC)c1OC | -11%
COc1cccc(-c2nnc(N)o2)c1 | -7%
O=C(/C=C/c1ccccc1)N(c1ccccn1)C1CCCCC1 | -6%
CC1=C[C@@H](O)CC(C)(C)[C@@H]1/C=C/C(C)=C/C=C/C(C)=C/C=C/C=C(C)/C=C/C=C(C)/C=C/C1=C(C)C[C@H](O)CC1(C)C | 28µM*
CCn1c(/C=C/Nc2ccccc2)[n+](CC)c2ccc(Cl)cc21 | 7%
COc1ccc(S(=O)(=O)N(C(=O)c2ccncc2)c2ccc3oc4c(c3c2)CCCC4)cc1 | -4%
Cc1oc2ccc(O)c(CN3CCCC3)c2c1C(=O)Nc1ccc(C(C)C)cc1 | 2%
N=C1C(c2ccccc2)=C(O)CN1NC(=O)c1ccc(Cl)cc1 | -10%
CCOc1ccc(C(C)=O)cc1NC(=O)/C=C\C(=O)O | 10%
Cc1nc2ccc(NC(=O)CCC3CCCC3)cc2s1 | -1%

Continued, overlapping the part above by 2 compounds.
compound | VDR inhibitor
CCOc1ccc(C(C)=O)cc1NC(=O)/C=C\C(=O)O | 10%
Cc1nc2ccc(NC(=O)CCC3CCCC3)cc2s1 | -1%
CCn1c2ccccc2c2cc(NC(=O)CCCN3C(=O)CCC3=O)ccc21 | -1%
Cc1cc(C)n(-c2nc3ccccc3nc2Nc2ccc(CC(=O)O)cc2)n1 | -1%
CO[C@H]1C=CO[C@@]2(C)Oc3c(C)c(O)c4c(O)c(c(C=NN5CCN(C)CC5)c(O)c4c3C2=O)NC(=O)C(C)=CC=C[C@H](C)[C@H](O)[C@@H](C)[C@@H](O)[C@@H](C)[C@H](OC(C)=O)[C@@H]1C | ?
Nc1ccccc1C(=O)NNc1ncc(C(F)(F)F)cc1Cl | 8%
O=C(COC(=O)c1ccc(F)cc1F)NC1CC1 | -16%
COc1ccc(-c2nc3cc([N+](=O)[O-])ccc3o2)cc1OC | -9%
CCN(CC)c1ccc(/C=N/N2CCN(Cc3cccc4ccccc34)CC2)c(O)c1 | -17%
Cc1cccn2c(=O)c(/C=C(\C#N)C(=O)NC3CCS(=O)(=O)C3)c(Oc3ccccc3Cl)nc12 (stereo not drawn) | 18µM*
O=C(O)[C@H]1CCCC[C@H]1C(=O)Nc1ccc(S(=O)(=O)N2CCOCC2)cc1 | -1%
Cc1cc(CNC(=O)Cc2c(F)cccc2Cl)nn1C | 8%
CC(NC(=O)CSc1nc(=O)cc(N)n1-c1ccccc1)c1ccccc1 (stereo not drawn) | -10%
COC(=O)c1cc(S(=O)(=O)NCC2CCN(Cc3ccc(Cl)cc3)CC2)c[nH]1 | -9%
C[C@H]1C=C(C(=O)O)O[C@@H](OCc2ccc(CO)cc2)C1 | 5%
COc1ccc(/C=C/C(=O)OCC(=O)N2CCCCCC2)cc1OC | -16%
CN(CC(=O)Nc1ccccc1Cl)C(=O)Cn1cnc2ccccc2c1=O | -1%
COC(=O)c1ccccc1OC(=O)c1ccc(Br)o1 | -3%
CC(C)C(NC(=O)c1c(F)cccc1F)C(=O)N1CCN(S(=O)(=O)c2ccc(F)cc2)CC1 (stereo not drawn) | -2%
N/C(=N\NC(=O)c1sccc1OCc1ccc(Cl)cc1Cl)c1ccccn1 | 11%
O=C(Cn1c(-c2ccccn2)nc2ccccc21)N/N=C/c1ccccn1 | 7%
COCc1cc(NCc2ccc(Cl)cc2)nc(C)n1 | 52%[activator]
CC(C)(C)c1ccc(C(=O)Nc2onc3c2CCCC3)cc1 | 10%
O=C1CCCc2nc3c(cc21)C(O)Oc1c-3ccc2ccccc12 (stereo not drawn) | -28%
COc1ccc(N(CC(=O)NC2CCCC2)C(=O)Cn2nnc(-c3ccc(F)cc3)n2)cc1 | -3%
